Arbovirus anti – antivirals against arbovirus infection, primary screen, cell-based, full library, 10K replicate subset; arbovirus infection cell-based antiviral screen; inhibition, % at 10 µM; 0.37% of 200,000 active;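 active means inhibition from about 30%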;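 further: bluetongue infection of BSR cells; cell survival read as ATP light after 72 h; 0% = infected wells without compound and 100% = uninfected wells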
YopH inh – YopH tyrosine phosphatase inhibitors, primary screen, biochemical, fluorescence Ex485/Em525 | YopH tyrosine phosphatase [Yersinia enterocolitica] | inhibition, %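 (about 10 µM by stock and volumes)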 | 0.16% of 140,000 active;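 active means inhibition of 50% or more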;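 further: controls were vehicle for no effect and minimum signal wells for full effect; inactives centre near -20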
Mtb growth – M. tuberculosis H37Rv growth inhibitors, H37Rv strain (AID 1626). M. tuberculosis H37Rv growth inhibition; higher % means a stronger effect. inhibition, % at 10 µM, or IC50 in µM where a hit was titrated. 0.95% of 220,000 active;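 active means confirmed in a dose series; inconclusive means inhibition above 80% but not taken into the dose series; inactive means below 80% or under 30% at every dose of the series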;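 further: bacteria incubated seven days before Alamar blue readout; 0% = bacteria only wells and 100% = bacteria with antibiotic wells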
RecA splice inh – Mtb RecA intein splicing inhibitors, primary screen, biochemical, fluorescence, HTS; cell-free RecA intein splicing; Protein RecA (Mycobacterium tuberculosis (strain ATCC 25618 / H37Rv)), P9WHJ3; AID 2221, 2009; inhibition, %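 (about 9 µM by stock and volumes)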; 0.75% of 290,000 active; in the data active means inhibition above about 30%; inconclusive means no clear call, values can overlap the other calls;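 further: 0% = vehicle wells and 100% = reference inhibitor control wells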
Target sequence (P9WHJ3 whole entry, looked up, canonical isoform): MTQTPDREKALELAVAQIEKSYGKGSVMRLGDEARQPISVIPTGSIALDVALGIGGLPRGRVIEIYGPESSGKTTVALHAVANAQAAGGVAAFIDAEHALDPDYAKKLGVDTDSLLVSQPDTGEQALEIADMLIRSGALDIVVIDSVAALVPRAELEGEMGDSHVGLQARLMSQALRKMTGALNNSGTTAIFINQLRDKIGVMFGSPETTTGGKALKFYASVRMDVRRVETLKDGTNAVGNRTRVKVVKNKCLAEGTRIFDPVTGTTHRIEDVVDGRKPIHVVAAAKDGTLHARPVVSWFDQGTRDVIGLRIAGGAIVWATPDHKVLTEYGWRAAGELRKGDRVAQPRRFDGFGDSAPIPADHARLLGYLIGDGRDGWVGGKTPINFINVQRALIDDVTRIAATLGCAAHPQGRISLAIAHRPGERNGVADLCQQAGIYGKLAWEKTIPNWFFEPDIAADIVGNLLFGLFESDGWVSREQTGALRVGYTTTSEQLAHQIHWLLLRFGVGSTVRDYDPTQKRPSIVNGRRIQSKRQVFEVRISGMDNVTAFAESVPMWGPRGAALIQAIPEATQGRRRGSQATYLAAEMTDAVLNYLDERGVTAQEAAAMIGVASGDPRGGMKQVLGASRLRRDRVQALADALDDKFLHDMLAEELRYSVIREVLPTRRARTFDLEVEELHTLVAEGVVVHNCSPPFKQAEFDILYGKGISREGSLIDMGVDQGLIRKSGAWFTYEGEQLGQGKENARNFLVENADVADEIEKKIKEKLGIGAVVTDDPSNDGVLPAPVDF
Mtb bLac sens – beta-lactam sensitization of Mtb H37Rv, H37Rv; M. tuberculosis H37Rv growth with meropenem, percent inhibition; hits of this screen are not shown here; inhibition, % at 25 µM; 0.27% of 330,000 active;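 active means about 74% or more and at least 40 points above the plate without the antibiotic, then above 30% in a dose series; inconclusive means first-round hits that could not be retested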;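 further: growth measured after seven days incubation then overnight dye step; 0% = bacteria only wells and 100% = bacteria with antibiotic; twin plates without the antibiotic show which effects depend on it; some results filed as inactive read as strong as hits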
Arbovirus anti repeat – also measured in Arbovirus anti; calls as there; inhibition, %; measured here: 10K subset replicate screen; many hits read low in the repeat;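 first of two repeat runs on a subset; 0% = infected and 100% = uninfected wells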
* marks the source's active call; other numbers are inactive results.

COCCCNC(=O)CC(NS(=O)(=O)c1ccc(Cl)cc1)c1ccc(OC)cc1 (stereo not drawn) was read as Arbovirus anti 12.0, YopH inh -19.9, Mtb growth -4.7%, RecA splice inh 0.6 and Mtb bLac sens 10.3.
For COCCN(Cc1cc2cccc(C)c2[nH]c1=O)C(=O)c1ccccc1 the results were Arbovirus anti 3.8, YopH inh 11.8, Mtb growth -6.0%, RecA splice inh 0.7 and Mtb bLac sens -8.2.
CCC1=Nc2cc(C(=O)NCCN3CCOCC3)ccc2Sc2ccc(Br)cc21 was read as RecA splice inh 2.3 and Mtb bLac sens -2.5.
Cc1ccc(S(=O)(=O)Cn2nnnc2C(C(C)C)N2CCN(C(=O)c3ccco3)CC2)cc1 (stereo not drawn) was read as YopH inh -14.5, Mtb growth -4.0%, RecA splice inh -0.6 and Mtb bLac sens -2.3.
`COc1ccc(/C=C/C(=O)O/N=C(\N)c2cccnc2)cc1OC` gave Mtb growth 0.6%, RecA splice inh 1.0 and Mtb bLac sens -4.7.
`Cc1ccc(C(=O)CSc2nsc(C)c2C#N)cc1` gave Arbovirus anti -0.8, YopH inh -32.6, Mtb growth 0.8%, RecA splice inh -2.7 and Mtb bLac sens 4.4.
Screening COC(=O)CCc1c(C)[nH]c(=S)[nH]c1=O returned Arbovirus anti 8.8, YopH inh -49.0, Mtb growth -3.6%, RecA splice inh -1.1 and Mtb bLac sens -4.2.
Cc1ncc(S(=O)(=O)c2ccc(Cl)cc2)c(-c2ccccc2)n1 was read as Arbovirus anti 2.5, YopH inh -16.6, Mtb growth 2.1%, RecA splice inh -0.4 and Mtb bLac sens -20.6.
`O=c1ccnc(NCCc2ccccc2)[nH]1` gave Arbovirus anti 6.8, YopH inh -27.9, Mtb growth -6.3%, RecA splice inh 2.1 and Mtb bLac sens -9.0.
CC(NC(=O)c1cc(Br)ccc1Cl)c1ccccc1 (stereo not drawn) was read as Mtb growth 16.8%, RecA splice inh 1.1 and Mtb bLac sens -4.1.
`CSCCC(/C(O)=C(\C#N)c1nc2ccccc2[nH]1)N1C(=O)c2ccccc2C1=O` (stereo not drawn) gave Arbovirus anti -6.1, YopH inh -32.5, Mtb growth 1.1%, Mtb bLac sens 37.1 and Arbovirus anti repeat -3.2.
Screening Cc1ccc(OCc2ccc(C(=O)NCc3cccnc3)cc2)cc1C returned Arbovirus anti 5.8, Mtb growth 8.7%, RecA splice inh -1.3 and Mtb bLac sens 6.8.
For COc1ccc2nc(SCC(=O)Nc3cc(C)on3)c(C#N)cc2c1 the results were RecA splice inh -16.4 and Mtb bLac sens -2.9.
COc1cccc(NC(=O)CN2C(=O)COc3ccc(S(=O)(=O)N4CCC(C)CC4)cc32)c1 was read as RecA splice inh 4.5 and Mtb bLac sens 1.8.
`Cc1cc(C)c(NC(=O)CSc2nnc(-c3ccncc3)n2Cc2ccco2)c(Cl)c1` gave Arbovirus anti -3.0, YopH inh -42.4, Mtb growth -10.2%, RecA splice inh 1.9, Mtb bLac sens -16.7 and Arbovirus anti repeat -3.0.
CCN1CCN(CCc2nc3cc(NC(=O)COc4ccccc4)ccc3n2C)CC1 was read as RecA splice inh -0.4 and Mtb bLac sens 3.5.
O=C(Nc1c(C(=O)N2CCOCC2)cnn1-c1ccccc1)c1ccc(F)cc1 was read as RecA splice inh 0.3 and Mtb bLac sens -0.8.
For CC1CCN(S(=O)(=O)c2ccc3c(ccn3CCC(=O)N3CCCCC3)c2)CC1 the results were RecA splice inh 2.0 and Mtb bLac sens -2.1.
COc1ccccc1/C=C(\NC(=O)c1ccc(OC)c(OC)c1)C(=O)Nc1cc([N+](=O)[O-])ccc1C was read as Arbovirus anti -17.6, YopH inh -21.4, Mtb growth 13.8%, RecA splice inh -1.8 and Mtb bLac sens 5.0.
Cn1cc(C(=O)NCc2cccs2)c(=O)c2cc(S(=O)(=O)N3CCCC3)ccc21 was read as Arbovirus anti 2.9, YopH inh -21.8, Mtb growth 0.8%, RecA splice inh -0.9 and Mtb bLac sens -12.2.
`CCC(=O)N1CCN(CCN=CC2=C(O)CC(c3ccc(OC)cc3)CC2=O)CC1` (stereo not drawn) gave Arbovirus anti 5.5, YopH inh -24.5, Mtb growth -9.9%, RecA splice inh -1.0 and Mtb bLac sens 8.2.
Screening CC(Oc1ccc(C(=O)c2ccc(F)cc2)cc1)C(=O)N1CCOCC1 (stereo not drawn) returned RecA splice inh -3.7 and Mtb bLac sens -4.3.
CC(C)(C)c1ccc(S(=O)(=O)CCc2ccccn2)cc1 was read as Arbovirus anti 8.8, YopH inh -41.8, Mtb growth -13.5%, RecA splice inh -1.0 and Mtb bLac sens -9.2.
Screening Cc1cc(OC(=O)Cc2cccc3ccccc23)c([N+](=O)[O-])c(=O)[nH]1 returned Arbovirus anti 2.3, YopH inh -24.2, Mtb growth -4.6%, RecA splice inh -3.4 and Mtb bLac sens 4.8.
Screening COc1ccc(C2CC(c3cccs3)=NN2c2nc(C)c(C(C)=O)s2)cc1OC (stereo not drawn) returned Arbovirus anti -0.9, Mtb growth 4.3% and RecA splice inh -7.3.
Screening Cc1cc(C)c(S(=O)(=O)/N=C2/C=C(Sc3ncn[nH]3)C(=O)c3ccccc32)cc1C returned Arbovirus anti -36.8, YopH inh 24.3, Mtb growth -5.5% and Mtb bLac sens 9.5.
For Cc1ccc(OCc2nnc(SCC(=O)Nc3ncc(C)s3)o2)cc1 the results were Mtb growth 9.0% and Mtb bLac sens 96.1.
Screening COc1cc(-c2nnc(-c3ccco3)o2)ccc1OCc1ccccc1 returned Arbovirus anti 5.7, YopH inh -29.9, Mtb growth -3.1%, RecA splice inh 0.3 and Mtb bLac sens 94.9.
C/C(=N\Nc1ccccc1C)c1cccnc1 was read as RecA splice inh 12.6 and Mtb bLac sens 15.0.
`CCNS(=O)(=O)c1ccc(CCC(=O)NCc2ccc(C)cc2)cc1` gave Arbovirus anti 0.4, Mtb growth 1.7%, RecA splice inh 0.6 and Mtb bLac sens -1.2.
For COc1ccc(-c2nn(CCC#N)cc2/C=N/O)cc1OC the results were Arbovirus anti -5.4, Mtb growth -1.4%, RecA splice inh 0.3 and Mtb bLac sens 6.0.
For Cc1ccc(CNC(=O)CCc2ccc(S(=O)(=O)NC3CCCCC3)cc2)cc1 the results were Arbovirus anti -3.5, YopH inh -15.9, Mtb growth 15.7%, RecA splice inh -0.2 and Mtb bLac sens -13.1.
For CSCCC(NC(=O)c1ccoc1C)C(=O)O (stereo not drawn) the results were Arbovirus anti -1.8, YopH inh -19.1, Mtb growth -1.3%, RecA splice inh -2.0 and Mtb bLac sens 3.3.
For COc1ccc(C(=O)Nc2ccccc2N2CCOCC2)cc1[N+](=O)[O-] the results were Arbovirus anti -6.2, YopH inh -23.1, Mtb growth -0.1%, RecA splice inh 0.3 and Mtb bLac sens -3.8.
Screening O=C(CCN1CCCCCC1)Nc1ccccc1F returned Arbovirus anti 5.5, YopH inh -14.7, Mtb growth 2.2%, RecA splice inh 0.3 and Mtb bLac sens -1.8.
O=C(Nc1ccccc1)c1ccc(F)c(S(=O)(=O)N2CCOCC2)c1 was read as Arbovirus anti 7.2, YopH inh -20.1, Mtb growth -6.3%, RecA splice inh -0.1 and Mtb bLac sens 3.5.
For O=C(CCNC(=O)c1ccc(Cl)cc1)Nc1ncccc1O the results were RecA splice inh 0.9 and Mtb bLac sens 6.3.
`O=c1cc(-c2ccc(Cl)cc2)[nH]c2ccccc12` gave Mtb growth 13.1% and Mtb bLac sens -7.3.
For Cc1cccc(Oc2nc(-c3ccccn3)nc3ccccc23)c1 the results were Mtb growth inconclusive, RecA splice inh 6.1 and Mtb bLac sens 92.1.
Screening CC(C)Oc1ccc(C(CC(=O)O)c2ccc(F)cc2)cc1 (stereo not drawn) returned Mtb growth 4.6%, RecA splice inh 0.2 and Mtb bLac sens 1.6.
For O=C1[C@@H]2C(c3cccnc3)=NO[C@@H]2C(=O)N1c1ccc(Br)cc1 the results were Mtb growth -4.7% and Mtb bLac sens -9.0.
Screening CN(C)/C=N/NC(=O)c1ccccc1 returned Arbovirus anti 14.2, Mtb growth 1.3%, RecA splice inh -0.6 and Mtb bLac sens -0.9.
CCOc1ccc(/C=N/NC(=O)C(C)N(c2ccc(OC)cc2)S(C)(=O)=O)cc1 (stereo not drawn) was read as Arbovirus anti 2.2, YopH inh 5.2, Mtb growth -1.0%, RecA splice inh -0.9 and Mtb bLac sens 1.1.
Screening CCCc1ccc(C(=O)Cn2nc(C(=O)O)c3ccccc3c2=O)cc1 returned Arbovirus anti 15.1, Mtb growth -2.7%, RecA splice inh -2.1 and Mtb bLac sens 0.1.
`O=C(CSc1nnc(-c2ccc(O)cc2)n1Cc1ccccc1)NNC(=O)c1ccc(Br)cc1` gave Arbovirus anti 3.1, YopH inh -14.8, Mtb growth -0.1%, RecA splice inh 1.9 and Mtb bLac sens -3.8.
For COc1ccc(CNC(=O)OCCN2CCN(Cc3ccccc3)CCC2=O)cc1 the results were Arbovirus anti 6.7, YopH inh -17.8, Mtb growth 7.3%, RecA splice inh -0.8 and Mtb bLac sens 10.0.
O=c1c2ccccc2nc(-c2ccccc2)n1/N=C/c1ccc([N+](=O)[O-])cc1 was read as Arbovirus anti 2.1, YopH inh -9.6, Mtb growth -3.1%, RecA splice inh -1.8 and Mtb bLac sens 1.6.
Screening CCn1c(NC(=O)c2ccccc2)c(-c2cccs2)c(=O)c2ccccc21 returned Arbovirus anti 16.4, YopH inh -11.2, Mtb growth -1.1%, RecA splice inh -1.1 and Mtb bLac sens 1.6.

As a short view, 2 of the compounds above:
Screening CC(C)Oc1ccc(C(CC(=O)O)c2ccc(F)cc2)cc1 (stereo not drawn) returned Mtb growth 4.6%, RecA splice inh 0.2 and Mtb bLac sens 1.6.
For O=C1[C@@H]2C(c3cccnc3)=NO[C@@H]2C(=O)N1c1ccc(Br)cc1 the results were Mtb growth -4.7% and Mtb bLac sens -9.0.

Further records:
For CC(C)(C)c1ccc(C2(C)NC(=O)N(CC(=O)Nc3ccc4c(c3)OCO4)C2=O)cc1 (stereo not drawn) the results were Arbovirus anti -3.8, YopH inh -13.1, Mtb growth 10.0%, RecA splice inh 2.8 and Mtb bLac sens -8.5.
`CC(C)(C)c1ccc(C(=O)Nc2ccc(C(=O)N3CCCC3)cc2)cc1` gave RecA splice inh -1.3 and Mtb bLac sens 33.7.
For Cc1ccc(NC(=O)CSc2nnc(-c3ccc(S(=O)(=O)N4CCOCC4)cc3)n2C)cc1 the results were Arbovirus anti 0.5, YopH inh -15.0, Mtb growth -14.1%, RecA splice inh -0.7 and Mtb bLac sens 6.7.
`CCCC(C)NC(=O)c1ccccc1SC` (stereo not drawn) gave Arbovirus anti 0.4, Mtb growth 2.0% and RecA splice inh -0.3.
O=c1[nH]c(CN2CCN(C/C=C/c3ccccc3)CC2)nc2cc(Cl)ccc12 was read as Arbovirus anti 6.3, YopH inh -30.9, Mtb growth 37.5%, RecA splice inh 0.9 and Mtb bLac sens 97.3.
COc1cc(CNC2CCCCCCC2)cc(Br)c1OCC#N was read as Arbovirus anti -20.8, YopH inh -20.9, Mtb growth -4.2%, RecA splice inh -2.2 and Mtb bLac sens -6.2.
Screening NC(=NC(=O)c1cccc(C(F)(F)F)c1)c1ccc(C(F)(F)F)cn1 returned Mtb growth 10.2%, RecA splice inh 2.0 and Mtb bLac sens -5.6.
`O=C(CCCN1C(=O)/C(=C\c2ccccc2)SC1=S)Nc1ccccc1O` gave Mtb growth 1.2%, RecA splice inh -1.5 and Mtb bLac sens -0.6.
Screening O=[N+]([O-])c1ccc(OCn2cncn2)cc1 returned RecA splice inh -5.1 and Mtb bLac sens -3.8.
NC(=O)NC(=O)COC(=O)/C=C/c1cccs1 was read as Mtb growth -8.6%, RecA splice inh -1.6 and Mtb bLac sens -5.3.
`Nc1cc(=O)[nH]c(SCCSc2ccc(F)cc2)n1` gave RecA splice inh -7.6 and Mtb bLac sens 6.6.
Screening CN(C)CC/C=C1/c2cc(F)ccc2Sc2ccc(Cl)cc21 returned RecA splice inh 4.4 and Mtb bLac sens 27.3.
For Cc1ccc(C)c2[nH]c(=O)c(CCNC(=O)c3cccs3)cc12 the results were Arbovirus anti 3.6, YopH inh -9.8, RecA splice inh -0.3 and Mtb bLac sens -4.6.
For O=S(=O)(c1ccccc1)n1nc(-c2ccccc2)nc1NCc1ccco1 the results were Arbovirus anti 9.0, YopH inh -9.0, Mtb growth -11.8%, RecA splice inh 1.2 and Mtb bLac sens -5.2.
`COc1ccc(CCn2ccc(O)c(Cc3ccc(Cl)cc3Cl)c2=O)cc1OC` gave Arbovirus anti 5.8, Mtb growth -0.6%, RecA splice inh -0.8 and Mtb bLac sens -8.0.

The list is partial; count on the stated rates, not on these rows.
